Source: PubChem (National Center for Advancing Translational Sciences (NCATS))
Bst PK mod: alters activity of Bacillus stearothermophilus pyruvate kinase; partly purified Bacillus stearothermophilus pyruvate kinase, luminescence ATP production; ribose 5-phosphate activator present at AC10; Potency, µM; 51,000 compounds, 1.2% hits; AID 361; in the data active means potency below about 11 µM; inconclusive means mostly about 12 µM to 25 µM; inactive means weaker than that;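 the screen sought inhibitors and activators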;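 further: potency means the concentration at half of the fitted maximal effect; scaled between full activation by ribose 5 phosphate and full inhibition by luteolin; about four in five hits inhibit and the cells do not say which; series up to 57 µM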
YjeE inh: displaces an ADP probe from E. coli YjeE (TsaE). P0AF67. purified YjeE, fluorescence polarisation of a bound ADP probe. Potency, µM. 71,000 compounds, 0.05% hits. AID 605; active = well fitted falling curve; inconclusive = weaker or top-dose-only fall, or a rising curve; inactive = flat or poorly fitted curve;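 further: top concentration of the series not given in the record; excess ADP was the control for the full effect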
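Purified YjeE (10 uM) with BODIPY Texas Red-labeled ADP probe (2 uM); compounds pin-transferred, 15 min at room temperature. Binding inhibition read as decreased fluorescence polarization; ADP titration as control.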
* = called active by the depositor; i = inactive; . = not tested or not shown. An excerpt. The share of hits here may be higher or lower than overall.

Bst PK mod	YjeE inh	compound
.	i	COc1cc2nc(N3CCN(C(=O)OCc4ccccc4)[C@H](C(=O)NC(C)(C)C)C3)nc(N)c2cc1OC
>57	i	COc1ccc(-c2nn(-c3ccccc3)cc2C(=O)Nc2nc(CC(C)=O)ns2)cc1
.	i	CCCCNc1ncnc2c1cnn2-c1ccc(Cl)cc1
.	i	CC1(C)O[C@H]2[C@@H](O1)[C@@H](On1nnc3ccc(Cl)cc31)O[C@@H]2[C@@H]1COC(C)(C)O1
>57	i	COC(=O)C(C)Sc1nc2c(c(=O)n1-c1ccccc1)SCC2 (centres undefined)
>57	i	CCC(=O)Nc1ccc(N2CCN(Cc3ccccc3)CC2)cc1
.	i	O=C(Nc1ccc2nc(-c3cccs3)c(-c3cccs3)nc2c1)N1CCOCC1
.	i	NC1(C(=O)O)CCCCC1
>57	i	CCn1c(SCC(=O)Nc2cc(OC)ccc2OC)nnc1C1CCCCC1
>57	i	CCOC(=O)Nc1cccc(Cl)c1C
>57	i	COCC(=O)N(C)C1(c2nnnn2CCOC(=O)Nc2ccc(Cl)cc2)CCCC1
>57	i	COCCN1CN=C(Nc2nc(C)c3ccc(C)cc3n2)NC1
.	i	O=C(O)CCCC(=O)Nc1ccccc1Br
.	i	O=C(Nc1ccccc1)N1CCCC2(CCN(C(=O)c3cccc(F)c3)CC2)C1
.	i	CCOC(=O)c1ccc(NC(=O)CSc2nnc(Cn3c(=O)sc4ccccc43)n2C)cc1
>57	i	CCCN(CCC)CCNC(=O)C(NS(=O)(=O)c1ccc2c(c1)CCC(=O)N2)c1ccccc1 (centres undefined)
>57	i	N#Cc1nc(Cc2ccccc2)oc1NCCN1CCOCC1
>57	i	O=C(CSc1nnc(-c2ccc(F)cc2)o1)c1ccc2c(c1)OCCO2
>57	i	CCOC(=O)Nc1sc2c(c1C(=O)OCC)CCC2
>57	i	CCc1ccccc1NC(=O)CC(O)(C(=O)OC)C(F)(F)F (centres undefined)
.	i	CCCc1c(OCCCOc2ccc(OCC(=O)O)cc2)ccc(CC=O)c1O
.	i	CCCCOC(=O)Nc1ccc(S(=O)(=O)Nc2cc(C)nc(C)n2)cc1
.	i	COC(=O)N1CCC2(CC1)CN(c1ccc(-c3ccccc3)cc1)C2
>57	i	COCCCNc1nc2ccccc2nc1NS(=O)(=O)c1cccs1
>57	i	Cn1c(=O)cc(SCC(=O)NCCCN2CCN(c3ccc(F)cc3)CC2)c2ccccc21
>57	i	Cc1cc(=O)n2nc(N3CCCC(C(=O)N4CCN(c5ccccc5)CC4)C3)sc2n1 (centres undefined)
>57	i	CCc1nc(SCC(=O)Nc2cc(C)on2)n[nH]1
>57	i	CN(C)c1nc2c(c(=O)n(C)c(=O)n2C)n1Cc1ccccc1
>25.6	.	CCOc1ccc(C2C(C#N)=C(N)Oc3cc(C)n(CCN4CCOCC4)c(=O)c32)cc1OCC (centres undefined)
.	i	CN(C)c1ncc2nc(-c3cc(F)cc(F)c3)c(=O)n(-c3ccccc3)c2n1
>57	i	O=c1cc(-c2ccccc2)[nH]c2[nH]n(-c3ccccc3)c(=O)c12
.	i	CC(=O)NC(CCS(C)(=O)=O)C(=O)Nc1cc(Cl)ccc1Cl (centres undefined)
.	i	O=C(c1cnccn1)N1CCC[C@@]2(CCN(c3ncccn3)C2)C1
>57	i	COc1ccc(S(=O)(=O)N2CCC(C(=O)N3CCCCCC3)CC2)cc1
>57	i	Cc1ccc2[nH]c3c(c2c1)CN(C(=O)CN1CCSCC1)CC3
>57	i	Cc1cc(C)c2[nH]c(=O)c(CN(Cc3ccc4c(c3)OCO4)Cc3nnnn3C3CCCC3)cc2c1
>25.6	.	C=CCOC(=O)C1=C(C)NC(SCC(=O)Nc2ccc(C)c(Cl)c2)=C(C#N)C1c1ccco1 (centres undefined)
>11.4	i	Cc1cc(NC(=O)CCn2c(=O)sc3ccccc32)no1
.	i	N#Cc1c2n(c3c(=O)n(Cc4ccc(Cl)cc4)cnc13)CCCC2
>57	i	O=C(COc1cccc(-n2cnnn2)c1)N1CCOCC1
>57	i	COc1cc(NC(=O)CS(=O)(=O)c2ccccc2)cc(OC)c1OC
.	i	CNC(=O)C1(C)C=CC2(CCCCC2)N1C(=O)OC (centres undefined)
>57	i	O=C(Cn1c(=O)oc2ccccc21)NCc1ccco1
>57	i	CCOC(=O)c1[nH]c(C)c(/C(O)=C2\C(=O)C(=O)N(CCN(C)C)C2c2ccco2)c1C (centres undefined)
.	i	O=C(NCCOC(=O)C1COc2ccccc2O1)C1COc2ccccc2O1 (centres undefined)
.	i	CCOC(=O)N1CCC(NC(=O)CSCc2nc(-c3sccc3C)oc2C)CC1
.	i	COc1ccc2[nH]cc(CCNc3ncnc4ccc(-c5ccccc5OC)cc34)c2c1
>57	i	COCCNC(=O)C(c1ccc(F)cc1)N(Cc1ccco1)C(=O)CCC(=O)Nc1nccs1 (centres undefined)
1.64*	i	Cc1nn(-c2nc3ccccc3s2)c(N)c1-c1ccccc1
.	i	CSC1=N/C(=C\C=C\c2cccs2)C(=O)S1
.	i	O=C(c1cnccn1)N1CCC[C@@]2(CCN(Cc3nccs3)C2)C1
>57	i	O=C(O)CN1C(=O)Nc2ccc(Br)cc2C1c1ccccc1 (centres undefined)
>57	i	Cc1ccc(-n2ncc(C#N)c2/N=C/N2CCOCC2)cc1
.	i	N#Cc1c(-c2cccs2)cc(-c2cccnc2)nc1N
>57	i	NC(=O)CC(NC(=O)OCc1ccccc1)C(=O)O (centres undefined)
>57	i	O=C(OCC#CCSc1nc2ccccc2o1)c1ccco1
>57	i	Cc1cc(C)cc(-n2nnnc2SCC(=O)Nc2cccc(NC(=O)c3ccco3)c2)c1
>57	i	COc1ccccc1C(=O)NC(C)C(c1cccs1)N1CCOCC1 (centres undefined)
>57	i	COCc1cc(C)nc(SCC(=O)NCc2ccco2)c1C#N
>57	i	O=C(O)c1ccccc1C(=O)NCc1ccc(F)cc1

Another view of five compounds above.
SMILES	Bst PK mod	YjeE inh
O=C(COc1cccc(-n2cnnn2)c1)N1CCOCC1	>57	i
Cc1cc(C)cc(-n2nnnc2SCC(=O)Nc2cccc(NC(=O)c3ccco3)c2)c1	>57	i
COCc1cc(C)nc(SCC(=O)NCc2ccco2)c1C#N	>57	i
O=C(c1cnccn1)N1CCC[C@@]2(CCN(c3ncccn3)C2)C1	.	i
COc1ccccc1C(=O)NC(C)C(c1cccs1)N1CCOCC1 (centres undefined)	>57	i

Other structures follow:
Bst PK mod	YjeE inh	compound
.	i	C=C1CC2C=C(NC(C)=O)CC(C1)C2 (centres undefined)
.	i	CCCNc1ncccc1C(N)=O
.	i	CC1(C)CC(=O)C(C=NCC2CCCO2)=C(O)C1 (centres undefined)
>57	i	O=C(COc1ccccc1Br)c1ccc(O)cc1O
.	i	COc1ccc(S(=O)(=O)N2CCC(C(=O)NCCC3=CCCCC3)CC2)cc1OC
i	.	O=c1[nH]c(-c2ccccn2)nc2ccccc12
>57	i	COc1ccc(S(=O)(=O)N2CCCC(C(=O)N3CCCCCC3)C2)cc1 (centres undefined)
>57	i	COC(=O)Cc1[nH]nc2c1C1(C(=O)N(Cc3ccccc3)c3ccccc31)C(C#N)=C(N)O2 (centres undefined)
.	i	CN(C)c1ccc(CN(C)C2CCCCC2)cc1
.	i	COCc1nnc(NS(=O)(=O)c2ccc(C)cc2)s1
.	i	COc1ccc(C2N(c3ccc(F)cc3)C(=O)C3CCCN32)cc1 (centres undefined)
>57	i	CC1=C(C(=O)OC(C)C)C(c2ccncc2)n2ncnc2N1 (centres undefined)
.	i	CCOc1ccc2nc3ccc4[nH]onc4c3c2c1
>57	i	O=C(NCc1ccc2c(c1)OCO2)C1CCN(C(=O)Nc2ccc(Cl)cc2)CC1
>57	i	CN1C(=O)CSc2ccc(NC(=O)N3CCN(c4ccccn4)CC3)cc21
.	i	O=C(C1CCN(Cc2ccccc2)CC1)N1CCCC1
>57	i	CSc1ncccc1C(=O)OCn1nnc2ccccc2c1=O
.	i	N#Cc1cccc(-c2nc3cnc(Oc4cccc(Cl)c4)nc3n(C3CC3)c2=O)c1
>57	i	COc1ccc(CNC(=O)c2csnn2)cc1
>57	i	CCc1nnc(NC(=O)CSc2nnc3scc(-c4ccc(C)cc4)n23)s1
.	i	CCN(CC)CCCCn1c(-c2ccccc2)nc2c(NC3CCCCC3)nc(C)nc21
>57	i	CCn1c(SCC(=O)N2CCC(C(N)=O)(N3CCCCC3)CC2)nc2ccccc2c1=O
>57	i	CCCCC(=O)Nc1cc(NC(=O)CCCC)cc(C(=O)O)c1
>57	i	CC(=O)NC(Cc1ccc(C)cc1)C(=O)NC1CCN(C(=O)c2cnccn2)CC1 (centres undefined)
>57	i	CCOC(=O)c1ccc(N2C(=O)CC(N3CCC(O)(c4ccc(Cl)cc4)CC3)C2=O)cc1 (centres undefined)
>57	i	Cc1c(C#N)c2ccccc2n1CC(=O)O
>57	i	CCOC(=O)c1cc(C#N)c(N)nc1C
.	i	CS(=O)(=O)Nc1cccc(-c2cc(Nc3ccccc3)ncn2)c1
>57	i	Cn1nnnc1SCc1csc(Nc2ccccc2)n1
>57	i	Cc1oc2nc(SCCCC(=O)NCCO)nc(N)c2c1C
>57	i	CCc1nc(SCc2cccnc2)[nH]c(=O)c1C
>57	i	CCOC(=O)CCCCC(=O)c1[nH]c(=O)[nH]c1CSc1nc2ccccc2[nH]1
>57	i	O=C(CSc1nnc(Cc2cccs2)n1Cc1ccco1)Nc1cc(Cl)cc(Cl)c1
>57	i	CCc1cc(-c2[nH]ncc2-c2ccc3c(c2)OCO3)c(O)cc1O
.	i	Cn1cnnc1SCCC(=O)Nc1ccccc1
>57	i	Cn1nnc(NC(=O)CSc2ccc(Cl)cc2)n1
>57	i	O=c1c2cc(N3CCOCC3)ccc2[nH]c(=S)n1CCCN1CCCCC1
>57	i	CC(=O)NC1C(=O)Nc2c1cccc2C(F)(F)F (centres undefined)
>57	i	O=C(NCc1ccncc1)c1cnccn1
>57	i	Cn1c(CNc2nc3ccccc3n2CCN2CCCCC2)nc2ccccc21
>57	i	O=C(Nc1cccc2c1C(=O)NC2=O)c1ccc(S(=O)(=O)N2CCCC2)cc1
i	.	Cc1cc(Nc2ccc3ccccc3c2)n2ncnc2n1
.	i	CCCn1c(C)cc(=O)c2cc(NC(=O)c3ccccn3)ccc21
>57	i	Cc1ccn2c(NC3CCCCC3)c(C)nc2c1
>57	i	CCN(CC)c1nc(C#N)cc(-c2ccc(OC)cc2)n1
>57	i	CCN1C(=O)CC(C(=O)NC)SC1=Nc1cc(Cl)c(O)c(Cl)c1 (centres undefined)
>57	i	Cc1ccc(Cn2c(-n3nc(C)cc3C)nc3c2c(=O)[nH]c(=O)n3C)cc1
>57	i	Cc1cc2nc(NC3=NCN(CCN4CCOCC4)CN3)nc(C)c2cc1C
.	i	O=C(O)CCCC[C@H]1CCSS1
>57	i	CCOC(=O)c1sc2ncn(C(C)C(=O)OC)c(=O)c2c1C (centres undefined)
>25.6	.	C=C1C2(C(=O)Nc3nccs3)CCC(C2)C1(C)C (centres undefined)
>57	i	O=c1[nH]c(SCc2ccccc2Cl)nc2c1CCCC2
>57	i	CCN(CC)C(=O)Cn1cnc2c1c(=O)n(C)c(=O)n2C
.	i	O=C(c1ccc(Cl)cc1)N1CCN(c2nc(N3CCCCC3)nc(N3CCCCC3)n2)CC1
.	i	CCOC(=O)N1CCN(C(=O)C(c2ccccc2)c2ccccc2)CC1
>57	i	Cc1onc(-c2c(F)cccc2Cl)c1C(=O)Nc1ccc(S(=O)(=O)Nc2ncccn2)cc1
.	i	Cc1nc2c(-c3ccc(F)cc3)c(C)nn2c(C)c1CCC(=O)N1CCN(c2ccccn2)CC1
.	i	CCN1CCN(CCNC(=O)C2CCN(Cc3nc(-c4ccc(Cl)cc4)oc3C)CC2)CC1
>57	i	Cc1ccccc1OCCCC(=O)Nc1ccc2c(c1)OCO2
>25.6	.	COc1cccc(N2C(=O)C(O)=C(C(C)=O)C2c2ccc(OC)c(OC)c2)c1 (centres undefined)

(continued)
Bst PK mod	YjeE inh	compound
>57	i	CC(=O)N1CCc2cc(Br)cc(S(=O)(=O)N3CCN(c4ccccn4)CC3)c21
.	i	COc1ccc(C)cc1Nc1cc(C)nc2nc(C)nn12
>57	i	COc1ccc(C)cc1C(=O)CCC(=O)Nc1ccccc1N1CCOCC1
>57	i	CC(=O)c1nc2ccccc2n1S(=O)(=O)c1ccc(C)cc1
>57	i	CCOc1ccc(-c2noc(=O)[nH]2)cc1
>57	i	CC(NC(=O)OCc1ccccc1)C(=O)NCC1CCCO1 (centres undefined)
.	i	Brc1ccccc1-c1nnc2sc(Cc3ccccc3)nn12
>25.6	.	CN1Cc2c(N)cccc2C(c2ccccc2)C1 (centres undefined)
>57	i	O=C(Nc1cccc(N2CCCC2)c1)c1cccs1
.	i	CCN(CC)C1=CC(=O)OC12CCCCC2
>11.4	i	O=c1[nH]c(Cc2cccs2)nc2ccccc12

Seven entries from above, ordered by length of the SMILES, lowest first.
Bst PK mod	YjeE inh	compound
.	i	CCN(CC)C1=CC(=O)OC12CCCCC2
>57	i	CCOc1ccc(-c2noc(=O)[nH]2)cc1
>11.4	i	O=c1[nH]c(Cc2cccs2)nc2ccccc12
.	i	COc1ccc(C)cc1Nc1cc(C)nc2nc(C)nn12
>57	i	CC(NC(=O)OCc1ccccc1)C(=O)NCC1CCCO1 (centres undefined)
>57	i	CC(=O)c1nc2ccccc2n1S(=O)(=O)c1ccc(C)cc1
>57	i	CC(=O)N1CCc2cc(Br)cc(S(=O)(=O)N3CCN(c4ccccn4)CC3)c21
